Mtb H37Rv = Mycobacterium tuberculosis H37Rv growth inhibition, putative kinase inhibitor library, confirmatory dose response (AID 2842) | 24,000 compounds, 5.2% hits | one-dose inhibition, % at 10 µg/mL; IC90 in µg/mL for titrated hits | M. tuberculosis H37Rv growth inhibition; higher % means a stronger effect; some inactives read as strong as hits;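 active = confirmed in a dose series; about a fifth of its hits are not listed in these tables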;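 also: bacteria incubated one week before Alamar blue readout; 0% = bacteria only wells and 100% = bacteria with high antibiotic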
The depositor's hits bear a star.

SMILES | Mtb H37Rv
Cc1cc(NC(=O)CSc2cn(Cc3cccc(F)c3)c3ccccc23)no1 | -2%

Assay outcomes as filed in PubChem.

Only part of the results is shown; the hit share may differ from the screen's.
